RecA intein inh: inhibitors of M. tuberculosis RecA intein splicing; cell-free RecA intein splicing, fluorescence; inhibition, %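 (about 9 µM by stock and volumes)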; hit rate 0.75% among 290,000; in the data active = inhibition above about 30%; inconclusive = no clear call, values can overlap the other calls;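 also: 0% = vehicle wells and 100% = reference inhibitor control wells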
Target sequence (P9WHJ3 whole entry, looked up): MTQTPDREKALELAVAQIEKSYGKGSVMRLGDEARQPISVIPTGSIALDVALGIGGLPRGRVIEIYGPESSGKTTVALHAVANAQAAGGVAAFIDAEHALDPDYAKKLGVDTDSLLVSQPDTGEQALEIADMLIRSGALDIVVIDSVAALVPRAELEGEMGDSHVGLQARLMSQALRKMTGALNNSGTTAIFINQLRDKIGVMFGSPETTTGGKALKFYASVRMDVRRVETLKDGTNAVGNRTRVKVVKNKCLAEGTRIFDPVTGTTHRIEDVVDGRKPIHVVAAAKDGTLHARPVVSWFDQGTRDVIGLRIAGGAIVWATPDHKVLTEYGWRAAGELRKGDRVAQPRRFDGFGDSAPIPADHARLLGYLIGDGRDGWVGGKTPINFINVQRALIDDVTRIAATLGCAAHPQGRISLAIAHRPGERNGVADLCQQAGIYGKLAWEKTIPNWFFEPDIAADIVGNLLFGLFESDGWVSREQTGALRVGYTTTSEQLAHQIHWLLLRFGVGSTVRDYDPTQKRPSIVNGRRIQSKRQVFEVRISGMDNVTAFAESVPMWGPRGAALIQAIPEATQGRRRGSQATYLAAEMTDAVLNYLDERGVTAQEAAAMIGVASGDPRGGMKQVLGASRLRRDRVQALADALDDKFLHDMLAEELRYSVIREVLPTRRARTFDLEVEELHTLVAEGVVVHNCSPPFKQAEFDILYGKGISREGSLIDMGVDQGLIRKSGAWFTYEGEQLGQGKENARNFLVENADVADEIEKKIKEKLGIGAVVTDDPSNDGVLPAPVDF
Mtb H37Rv: M. tuberculosis H37Rv growth inhibitors, H37Rv strain (AID 1626); M. tuberculosis H37Rv growth inhibition; higher % means a stronger effect; inhibition, % at 10 µM, or IC50 in µM where a hit was titrated; hit rate 0.95% among 220,000;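 active = confirmed in a dose series; inconclusive = inhibition above 80% but not taken into the dose series; inactive = below 80% or under 30% at every dose of the series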;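 also: bacteria incubated seven days before Alamar blue readout; 0% = bacteria only wells and 100% = bacteria with antibiotic wells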
Arbovirus anti: blocks arbovirus infection; inhibition, % at 10 µM; hit rate 0.37% among 200,000; arbovirus infection cell-based antiviral screen;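 active = inhibition from about 30%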;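 also: bluetongue infection of BSR cells; cell survival read as ATP light after 72 h; 0% = infected wells without compound and 100% = uninfected wells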
Mtb betalactam: beta-lactam sensitization of Mtb H37Rv. M. tuberculosis H37Rv growth with meropenem, percent inhibition; hits of this screen are not shown here. inhibition, % at 25 µM. AID 434955. hit rate 0.27% among 330,000;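 active = about 74% or more and at least 40 points above the plate without the antibiotic, then above 30% in a dose series; inconclusive = first-round hits that could not be retested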;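 also: growth measured after seven days incubation then overnight dye step; 0% = bacteria only wells and 100% = bacteria with antibiotic; twin plates without the antibiotic show which effects depend on it; some results filed as inactive read as strong as hits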
YopH inh: blocks Yersinia enterocolitica YopH tyrosine phosphatase; fluorescence Ex485/Em525; inhibition, %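 (about 10 µM by stock and volumes)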; hit rate 0.16% among 140,000; AID 898;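 active = inhibition of 50% or more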;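 also: controls were vehicle for no effect and minimum signal wells for full effect; inactives centre near -20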
Arbovirus anti repeat: recorded beside Arbovirus anti, whose call it bears; inhibition, %; measured here: 10K subset replicate screen; many hits read low in the repeat;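 first of two repeat runs on a subset; 0% = infected and 100% = uninfected wells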
Numbers without * were called inactive; ? = inconclusive; · = not tested or not shown. Only part of the results is shown; rates above refer to the full screens.

The opening three compounds (preview)
SMILES | RecA intein inh | Mtb H37Rv | Arbovirus anti | Mtb betalactam | YopH inh | others
Cc1ccc(NC(=O)c2ccc(C(C)(C)C)cc2)cc1-n1cnnn1 | 1.4 | -5.2% | -6.2 | 2.4 | ·
COc1ccc(OCC(O)CN2CCOCC2)cc1 (stereo unspecified) | -2.9 | · | · | -5.3 | ·
Cc1cccc(NS(=O)(=O)c2c(C)[nH]c(C)c2C(=O)N2CCCC2)c1 | 0.2 | · | · | -3.4 | ·

The listing, from the first entry:
SMILES | RecA intein inh | Mtb H37Rv | Arbovirus anti | Mtb betalactam | YopH inh | others
Cc1ccc(NC(=O)c2ccc(C(C)(C)C)cc2)cc1-n1cnnn1 | 1.4 | -5.2% | -6.2 | 2.4 | ·
COc1ccc(OCC(O)CN2CCOCC2)cc1 (stereo unspecified) | -2.9 | · | · | -5.3 | ·
Cc1cccc(NS(=O)(=O)c2c(C)[nH]c(C)c2C(=O)N2CCCC2)c1 | 0.2 | · | · | -3.4 | ·
COc1cc(-c2cc[n+](C)cc2)ccc1O | -2.1 | 5.8% | · | -14.1 | ·
CC1=C(C#N)c2nc(N)c(C#N)c(C)c2/C1=C\c1ccc(OCC(=O)O)c(Cl)c1 | 9.2 | -11.2% | · | -0.8 | ·
CCOC(=O)c1c(C)[nH]c(C(=O)OCCOc2ccccc2C)c1C | 0.5 | 3.9% | 0.3 | · | -16.5
COc1ccccc1-c1nnc(C2CCN(S(=O)(=O)c3ccc([N+](=O)[O-])cc3)CC2)o1 | -2.5 | · | · | 4.6 | ·
O=c1c2ccccc2nc(/C=C/c2cccnc2)n1Cc1ccccc1 | 49.0* | 3.1% | 3.3 | · | ·
CN1CCN(C(=O)c2cc3c(s2)-c2ccccc2S(=O)(=O)C3)CC1 | -4.0 | 0.8% | 0.1 | 8.2 | -18.9 | Arbovirus anti repeat=-6.5
COc1cc(NC(=O)Cn2c(C)cc3ccccc3c2=O)cc(OC)c1OC | -1.2 | 0.5% | -6.4 | 4.5 | -33.1
CN(CCCNC(=O)CCC(=O)N1CCOc2ccccc21)Cc1ccccc1 | -2.1 | · | · | -3.4 | ·
O=C(NCCC1=CCCCC1)c1cc(S(=O)(=O)N2CCOCC2)ccc1F | -0.1 | · | · | -7.0 | ·
CCN(Cc1ccccc1)C(=O)Cn1c(=O)n(CCC(=O)N2CCCCC2)c(=O)c2sccc21 | 0.0 | · | · | 3.6 | ·
COc1ccc(-n2c(=S)[nH]c3cc(C(=O)NCc4ccccc4)ccc3c2=O)c(OC)c1 | 2.6 | · | · | 2.9 | ·
CCOc1ccc(-c2nnn(CC(=O)NCc3ccc(OC)cc3)n2)cc1OCC | · | -6.3% | -6.7 | 3.4 | -50.0
Cc1cc(=O)[nH]c(N/N=C/c2sccc2C)n1 | -1.9 | -4.9% | -0.2 | 8.4 | -13.3
O=C1c2ccccc2S(=O)(=O)c2cc(C(=O)N3CCC(O)CC3)ccc21 | -1.9 | -1.6% | · | -2.4 | ·
CN1C(=O)C(Cc2c[nH]c3ccccc23)C(=O)N(C)C1=O | · | · | -8.4 | · | -26.4
CCn1cc(Br)c(-c2nc3ccccc3c(=O)n2N)n1 | -0.2 | 4.5% | 2.1 | 2.0 | -76.9
O=c1nc(-c2ccccc2)c(-c2ccccc2)n[nH]1 | -1.1 | · | · | 2.2 | ·
CC(=O)Nc1cc2ccccc2oc1=O | -2.4 | 1.2% | 0.5 | 4.5 | ·
CC1(C)CC(=O)c2cc(C(=O)Nn3cnnc3)c(=O)n(-c3ccccc3)c2C1 | -3.4 | -4.1% | 10.9 | -10.8 | -17.5
CC(=O)Nc1nc(SCC(=O)Nc2nnc(C)s2)[nH]c(=O)c1NC(=O)c1cccs1 | 2.9 | 1.6% | -3.8 | 4.8 | ·
COc1cccc(/C=N/n2nnnc2N)c1O | -0.5 | -8.1% | · | 2.6 | ·
O=C(NCCc1ccccc1)c1ccc2c(c1)N(Cc1ccccc1)C(=O)CS2=O (stereo unspecified) | 3.1 | 5.8% | -14.8 | 0.8 | -13.8 | Arbovirus anti repeat=-8.9
O=Cc1cn(CC(=O)N2CCCCCC2)c2ccccc12 | -1.7 | 0.1% | · | -6.7 | ·
COc1ccccc1CNC(=O)c1ccc(-c2ccccc2C(F)(F)F)o1 | 18.4 | -9.7% | -25.4 | 47.1 | -8.3
COc1ccc(-c2cc(C(F)(F)F)nc(N3CCOCC3)n2)cc1OC | 1.7 | 3.2% | 4.7 | -1.4 | -47.8
CCc1nnc(NS(=O)(=O)c2ccc(Nc3ccc4nonc4c3[N+](=O)[O-])cc2)s1 | 19.9 | 1.2% | 3.1 | 44.4 | ·
COC(=O)Cn1c2ccc(Cl)cc2c2nc(C)sc21 | -4.7 | 14.8% | · | 64.5 | ·
CCOC(=O)c1cc(-c2ccccc2)nn1CCC#N | 3.9 | 0.6% | 1.2 | -4.8 | ·
CCOC(=O)c1c(NC(=O)C2C3CCC(O3)C2C(=O)O)sc2c1CCCC2 (stereo unspecified) | 0.4 | -2.4% | 0.2 | 0.8 | ·
COc1cccc(C(=O)C2CCCN(Cc3ccc(F)cc3)C2)c1 (stereo unspecified) | -0.6 | · | · | -2.9 | ·
O=C(CSc1nnc(COc2ccc(Cl)cc2)o1)NC1CC2CCC1C2 (stereo unspecified) | -0.4 | · | · | 3.8 | ·
CC(C)Cn1c(SCC(=O)N(C)c2c(N)n(Cc3ccccc3)c(=O)[nH]c2=O)nc2ccccc21 | -0.9 | · | · | -4.6 | ·
CCOC(=O)c1ccc2c(c1)N(CC(=O)N1CCCCC1)C(=O)C(C)(C)O2 | 0.2 | -10.7% | -0.6 | -7.4 | -34.6
CC(C)c1ccc(/C=N/NC(=O)C2CCCC2)cc1 | 0.8 | · | · | -3.6 | ·
O=C(Nc1ccc(Cl)cc1C(=O)NCc1cccnc1)c1ccc(Cl)cc1Cl | 4.4 | 42.3% | -3.0 | 85.0 | -32.8
CCOc1ccc2c3c(c(=O)oc2c1OCC)CCCC3 | 3.1 | 7.11µM* | -5.8 | -4.8 | -18.9
CCCCN(C)CCCNC(=O)C1CCC(CNS(=O)(=O)c2c(C)cc(C)cc2C)CC1 (stereo unspecified) | -0.1 | · | · | -1.7 | ·
Cc1cc(O)c(C2=Nc3ccccc3SC(c3ccc(Cl)cc3)C2)c(=O)o1 (stereo unspecified) | -1.4 | 3.0% | -20.3 | 3.7 | -13.1
O=C(N/N=C/C1=C(N2CCOCC2)C(=C\c2ccccc2)/CC1)Nc1ccccc1 | -0.4 | -8.5% | -10.8 | -5.7 | -29.4
CC(C)NC(=O)CCS(=O)(=O)c1cccc2nonc12 | -1.0 | -5.0% | -0.8 | 45.6 | -22.8
Cc1ccc(NC(=O)CSc2sc3c(O)cc(=O)[nH]c3c2C#N)cc1C | -1.9 | · | · | -0.1 | ·
CCOC(=O)c1sc(SC)nc1N | 1.8 | 1.3% | -1.0 | 1.1 | ·
COc1ccc(C2C(C(=O)c3ccccc3)=C(C)Nc3nc4ccccc4n32)c(OC)c1 (stereo unspecified) | -3.1 | · | -7.7 | 9.4 | -31.3
ON1C2CCCCC2N(O)C1c1ccccc1 (stereo unspecified) | -3.4 | 13.3% | -3.6 | 2.0 | -27.3
Cc1cccc(C)c1NC(=S)Nc1c(C)n(C)n(-c2ccccc2)c1=O | 0.9 | -1.8% | 5.9 | 3.1 | -19.7
CCOC(=O)c1cc2sc(C)cc2n1CCCN1C(=O)c2ccccc2C1=O | -0.3 | -7.8% | 0.6 | 3.4 | 14.5
CC(=O)c1cccc(NC(=O)N2CCCC2C(=O)NC2CCCCC2)c1 (stereo unspecified) | 0.6 | -2.4% | 1.3 | -11.3 | -56.6
COc1ccc(C(=O)C[n+]2cccc3cc(OC)ccc32)cc1 | -1.8 | · | · | ? | ·
Cc1ccc(OCCNC(=O)/C=C/c2ccccc2)cc1C | 7.2 | -3.1% | 8.1 | -3.9 | -4.7
C=CCn1c(SCc2cc(=O)n3ccsc3n2)nc2ccccc2c1=O | -0.3 | 2.4% | -4.2 | 9.8 | ·
Cc1c(NC(=O)C(C)OC(=O)c2cccc(S(=O)(=O)N3CCOCC3)c2)c(=O)n(-c2ccccc2)n1C (stereo unspecified) | -0.5 | -5.2% | · | -7.1 | ·
CCOc1ccc(NC(=S)N(CCc2c(C)[nH]c3ccc(C)cc23)Cc2cccnc2)cc1 | 0.9 | · | -2.5 | 27.8 | -24.3
COc1cccc(C(=O)C2CCCN(Cc3ccc4nsnc4c3)C2)c1 (stereo unspecified) | 3.2 | 6.1% | 8.5 | 1.0 | ·
COc1ccccc1N1CCN(C(c2ccc(N(C)C)cc2)c2nnnn2CCc2ccccc2)CC1 (stereo unspecified) | 6.4 | -4.8% | 3.2 | -11.8 | -3.6
CCCCc1cc(=O)oc2cc(C)cc(OCC(=O)NCc3ccncc3)c12 | -2.6 | · | · | -8.8 | ·
CCC12CN(C(=O)c3ccc(OC)cc3)CC(CC)(CN(C(=O)c3ccc(OC)cc3)C1)C2=O | -1.1 | -7.9% | 13.9 | 6.4 | -7.4
CSc1nc2nc3c(c(=O)n2[nH]1)CCCC3 | 0.3 | 79.1% | 9.3 | 99.7 | -7.2

(list continues)
SMILES | RecA intein inh | Mtb H37Rv | Arbovirus anti | Mtb betalactam | YopH inh | others
Cc1ccc(NC(=O)C(C)OC(=O)Cc2c[nH]c3ccccc23)cc1S(=O)(=O)N1CCOCC1 (stereo unspecified) | 3.4 | · | · | -8.6 | ·
CC1Cc2cc(/C(O)=C3/C(=O)C(=O)N(CCCN(C)C)C3c3ccncc3)ccc2O1 (stereo unspecified) | 3.1 | 0.4% | -0.3 | · | 0.6
COc1ccc(OC)c(NC(=O)c2ccc3c(c2)C(=O)N(c2ccc(OC(C)=O)cc2)C3=O)c1 | -1.4 | · | · | -0.1 | ·
C=CCn1c(SCC(=O)NC2CCS(=O)(=O)C2)nnc1-c1cc2c(s1)CCC(CC)C2 (stereo unspecified) | -4.8 | 4.6% | -13.6 | -5.6 | 10.9
CC(C)(C)C(=O)CSc1ncnc2sc3c(c12)CCC3 | 0.4 | 2.0% | -2.2 | 3.9 | ·
Cc1nn(C2CCS(=O)(=O)C2)c(Cl)c1/C=C/C(=O)OCC(=O)N(C)C (stereo unspecified) | -2.3 | -3.9% | 5.7 | -9.0 | ·
NS(=O)(=O)c1ccc(NC(=O)C2CCCN(S(=O)(=O)c3ccc(F)cc3)C2)cc1 (stereo unspecified) | -0.2 | 5.0% | 6.5 | 1.9 | -4.1
CCc1cccc2c(C(=O)CSc3nncn3-c3ccc(OC)cc3)c[nH]c12 | 1.3 | 0.6% | -3.8 | 9.0 | -28.2
O=C(N1CCOCC1)N(CCN1CCOCC1)Cc1cccc2ccccc12 | 3.5 | -10.3% | 5.5 | -11.3 | -18.8
CC1Cc2nc(SCC(=O)NCC3CCCO3)n(C)c(=O)c2S1 (stereo unspecified) | -1.6 | · | · | -1.9 | ·
Cc1c(C(=O)Nc2ccccc2)sc2nc(-c3ccccc3)cn12 | · | -3.3% | -1.6 | -18.9 | -136.6
CN1C(=O)c2cccc3c(S(=O)(=O)NCCc4ccccc4)ccc1c23 | -181.4 | · | · | -0.5 | ·
COc1ccc(OC)c(/C=N/NC(=O)CCc2ccc(O)c(O)c2)c1 | -5.5 | 0.0% | -17.6 | -3.3 | -22.5
CC(=O)Nc1ccccc1NC(=O)C/C(C)=N/NC(=O)C(=O)N1CCCCC1 | 85.0* | · | · | 5.2 | ·
COc1ccc(-c2csc(NS(=O)(=O)c3ccc([N+](=O)[O-])cc3)n2)cc1 | -0.4 | -1.1% | 11.2 | 6.1 | -19.4
CSCCC(NC(=O)c1ccccc1Br)C(=O)NCC1CCCCC1 (stereo unspecified) | 0.8 | -1.2% | 21.8 | -8.3 | ·
O=C1CCCCN1CCc1c[nH]c2ccccc12 | 1.6 | -1.2% | 10.9 | -6.1 | -14.0
Cc1ccccc1NC(=O)c1snc2c(=O)[nH]cnc12 | -0.3 | -3.0% | 7.1 | -0.1 | ·
O=C(OCC(F)(F)C(F)F)c1ccccc1C(=O)Oc1ccc(F)cc1F | 7.9 | 5.2% | 1.9 | -5.8 | -46.7 | Arbovirus anti repeat=13.7
CN(C)CCCC1Sc2ccccc2Sc2ccccc21 (stereo unspecified) | 1.3 | · | · | 0.9 | ·
CCOc1cc(OCC)cc(C(=O)Nc2cccc(C(C)=O)c2)c1 | -0.5 | -8.7% | -8.0 | 0.8 | -26.9
COc1ccc(CNC[C@@H](CCCCN(C)Cc2ccc(OC)cc2)N2C[C@H](c3ccccc3)N(CCc3ccc(Cl)c(Cl)c3)C(=O)C2=O)cc1 | 10.9 | 12.2µM* | -21.8 | 100.1 | ·
CC1CCCC(C)N1C(=O)COc1ccc(F)cc1 (stereo unspecified) | -2.8 | 4.2% | 2.9 | 1.5 | ·
